Screening results from PubChem BioAssay.
Rango dissoc inh: prevents RanGTP from dissociating the Rango-importin beta complex | O95149+P62826 | Biochemical FRET Rango-importin beta, RanGTP-induced dissociation | Potency, µM (series often up to 46.1 µM), without a hit: at the highest dose activity change, negative = inhibition | 0.071% of 340,000 active; active means falling FRET ratio curve, often poorly fitted, with flat reads before Ran was added; inconclusive means other falling curves, or compound fluorescence or quenching; inactive means flat or rising ratio curve;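 note: potency is the fitted concentration of half-maximal effect; % of control where 0% means no effect; nearly all actives have a fitted effect of over 45% in size; -100% = wells without RanGTP and RCC1; the record marks most hits as doubtful in a second field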
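Rango (0.1 uM)–importin beta (0.25 uM) complex; RanGTP-RCC1 trigger; 45 min RT; CFP/YFP FRET read.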
miR-21 FLuc: raises the signal of a miR-21 reporter; HeLa miR-21 FLuc reporter, luciferase, 48 h; Potency, µM (highest dose often 38.3 µM), without a hit: at the highest dose reporter change, positive = more light; 340,000 tested, under 10 active; active = well fitted rising curve with a large enough effect; inconclusive = small, poorly fitted or top-dose-only effect; inactive = no such curve, though single readings can be large or run the other way;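 note: % of control where 0% means no effect; miR-21 action dims this reporter so a rising signal means less miR-21 action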
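Luminescence from a firefly luciferase reporter carrying a miR-21 binding site downstream, stably expressed under a CMV promoter in HeLa cells that make miR-21 endogenously, reports miRNA modulation after 48 h compound exposure up to approximately 40uM final.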
GLA inh pH 4.5: alpha-galactosidase A (human) inhibition, pH 4.5. activity change, negative = inhibition, % at 105 µM. AID 1467. purified enzyme, 4-MU-alpha-Gal fluorescence, pH 4.5. 230,000 tested, under 10 active. P06280; inconclusive = small, poorly fitted or top-dose-only inhibition, or a rising curve; inactive = flat fitted curve, though single readings scatter; no compound was filed as active;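 note: 0% = full activity with enzyme and -100% = basal without enzyme; dose as in the result columns while the protocol names 77 µM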
Target sequence (P06280 whole entry, looked up): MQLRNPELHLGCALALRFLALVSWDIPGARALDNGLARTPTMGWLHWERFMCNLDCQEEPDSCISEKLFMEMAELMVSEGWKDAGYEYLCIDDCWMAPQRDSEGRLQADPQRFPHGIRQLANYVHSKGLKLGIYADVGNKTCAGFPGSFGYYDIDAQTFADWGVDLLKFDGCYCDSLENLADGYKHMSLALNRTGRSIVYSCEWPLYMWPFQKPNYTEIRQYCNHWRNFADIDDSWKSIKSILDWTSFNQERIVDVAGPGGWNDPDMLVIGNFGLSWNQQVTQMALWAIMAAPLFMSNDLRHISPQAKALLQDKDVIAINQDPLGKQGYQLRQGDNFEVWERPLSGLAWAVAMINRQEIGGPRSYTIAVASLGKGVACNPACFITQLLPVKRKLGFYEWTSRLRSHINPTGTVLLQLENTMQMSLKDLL
Rango-impB inh: prevents formation of the Rango-importin beta complex | Rango CFP/YFP FRET sensor + importin beta, 45 min | Potency, µM (titrated, usually from 92.2 µM), for the others: at the highest dose inhibition of complex formation | 0.031% of 340,000 active | AID 540263; active = rising FRET ratio curve, often small or poorly fitted; inconclusive = mostly compound fluorescence or quenching in the first reads; inactive = flat curves in all reads;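 note: potency is the fitted concentration of half-maximal effect; 0% = DMSO wells and 100% = buffer wells lacking importin beta; nearly all actives have a fitted effect of over 15% in size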
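FRET biosensor Rango (snurportin 1 IBB between N-terminal EYFP and C-terminal Cerulean), 50 nM in PBS/1 mM DTT/0.02% Tween-20/0.1% BSA, preincubated 5 min RT with compound; 0.125 microM importin beta added, 45 min RT, CFP/YFP FRET ratio read.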
* = called active by the depositor; ? = inconclusive; . = no result given; [ ] = remark or other dose. Some of the compounds tested (hit frequency here may not be typical).

nr	structure	Rango dissoc inh	miR-21 FLuc
1	Cn1nc(C(F)(F)F)c(-c2ccc(Br)cc2)c1NC(=O)C1CCC1C(=O)O (centres undefined)	2%	-1%
2	c1ccc(COc2cncc(-c3cccnc3)c2)cc1	22%	.
3	O=C(Nc1ccnn1C1CCN(CC2CC=CCC2)CC1)c1ccccc1 (centres undefined)	-20%	0%
4	CSCCC(NC(N)=O)C(=O)NCc1ccc(Cl)cc1 (centres undefined)	1%	0%
5	CC(C)C(=O)Nc1ccc2c(c1)nc(CCN1CCN(c3ccccn3)CC1)n2C	-12%	0%
6	COc1ccc(NC(=O)CC(=O)Nc2ccc(OC)cc2OC)c(OC)c1	4%	-8%
7	O=C(NCc1cc2ccccc2[nH]1)C1CCC(=O)N(CCCN2CCCC2=O)C1 (centres undefined)	-20%	-10%
8	O=C(Nc1ccncc1)c1cccc(S(=O)(=O)N2CCN(c3ccc(F)cc3)CC2)c1	2%	.
9	CCOC(=O)c1sc(NC(=O)COC(=O)CNC(=O)c2ccco2)c(C(=O)OCC)c1C	0%	0%
10	O=C(CNc1cccc([N+](=O)[O-])c1)NC(=O)NC1CCCCC1	-14%	.
11	Cc1cccc(NC(=O)c2cnn(-c3ccc(F)cc3)c2C2CCNCC2)c1C	-4%	2%
12	O=C(CN1C(=O)CC(c2ccccc2)=Nc2ccccc21)NCc1ccccc1	-11%	0%

nr	GLA inh pH 4.5	Rango-impB inh
1	-9	-1.8%
2	.	2.6%
3	.	1.7%
4	5	-4.2%
5	.	-1.0%
6	-3	-0.8%
7	.	?
8	.	2.6%
9	-9	-1.5%
10	.	-3.9%
11	7[21.1 µM]	4.7%
12	0	-0.1%

The results go on.
nr	structure	Rango dissoc inh	miR-21 FLuc
13	CC(=O)c1cccc(NC(=S)N2CCN(S(=O)(=O)c3ccccc3)CC2)c1	?	-6%
14	O=C(O)CC1CCCC(c2ccccc2)C1=O (centres undefined)	-1%	0%
15	COc1ccc(CC(=O)NCc2nnc(SCC(=O)Nc3ccc(OC)cc3)n2C)cc1	2%	-7%
16	Cc1cc2cc(C)c3nnc(SCC(=O)NCc4ccc5c(c4)OCO5)n3c2cc1C	2%	0%
17	O=C(NC(CO)Cc1ccccc1)c1ccccc1 (centres undefined)	1%	-21%
18	COc1ccc(OC)c(NC(=O)CCc2nnc3ccc(N4CCC(C)CC4)nn23)c1	5%	-7%
19	C[C@@H]1CN([C@H](C)CO)C(=O)c2cc(NC(=O)Cc3ccccc3)ccc2O[C@H]1CN(C)Cc1ccc(Oc2ccccc2)cc1	-10%	.
20	Cc1cc(C)c(C#N)c(SCc2nc3ccccc3[nH]2)n1	?	-53%
21	CCOc1ccc(CCNC(=O)CCNS(=O)(=O)c2ccc3c(c2)CCN3C(C)=O)cc1OCC	0%	0%
22	COc1cc(OC)cc(C(=O)OCC(=O)Nc2ccc(F)cc2F)c1	-6%	3%
23	COc1ccc(CNS(=O)(=O)c2ccc(Br)s2)cc1	1%	-2%
24	CCCCN(CC(=O)NCc1ccc(F)cc1)C(=O)c1ccco1	9%	-3%

nr	GLA inh pH 4.5	Rango-impB inh
13	.	0.6%
14	0	-4.2%
15	3	6.5%
16	8	-3.9%
17	-2	-3.1%
18	.	0.3%
19	.	-3.7%
20	-6	?
21	.	-0.9%
22	7	1.8%
23	.	1.4%
24	12	-5.5%

Continuation:
nr	structure	Rango dissoc inh	miR-21 FLuc
25	CCn1c(SCC(=O)N2CCCc3ccccc32)nnc1-c1c[nH]c2ccccc12	2%	4%
26	C=C(Cl)COc1ccc2c(CCCC)cc(=O)oc2c1	?	-31%
27	COc1ccc(NS(=O)(=O)c2cccc(C(=O)N/N=C/c3ccccc3OC)c2)cc1	0%	.
28	CCCOc1cccc(C(=O)NC(=S)Nc2cccc(C(F)(F)F)c2)c1	30%	-1%
29	CCS(=O)(=O)n1nc(-c2ccc(OC)cc2)nc1SC	-6%	-40%
30	CC1CN(CC(O)COC(c2ccc(Cl)cc2)c2ccc(Cl)cc2)CC(C)O1 (centres undefined)	-3%	?
31	COc1ccc(C(NC(C)=O)c2cc(Cl)c3cccnc3c2O)cc1 (centres undefined)	-12%	22%
32	Cc1cc(S(=O)(=O)N2CCC3(CC2)OCCN3S(=O)(=O)c2cccs2)ccc1F	1%	.
33	CC(C)[C@H](NC(=O)c1ccccc1Br)C(=O)OCc1nc2ccsc2c(=O)[nH]1	4%	.
34	Cc1c(NC(=O)C(C)OC(=O)C(NC(=O)c2ccco2)C(C)C)c(=O)n(-c2ccccc2)n1C (centres undefined)	18%	-5%
35	CCOc1ccc(N2CC(C(=O)OC)CC2=O)cc1 (centres undefined)	-4%	-2%
36	CCN(CC)C(=O)CSc1nc2ncc(Br)cc2[nH]1	31%	-11%

nr	GLA inh pH 4.5	Rango-impB inh
25	0	-0.9%
26	5	0.9%
27	.	-1.6%
28	3	0.0%
29	-3	2.8%
30	1	-1.8%
31	.	0.7%
32	.	0.2%
33	.	-5.1%
34	0	-1.6%
35	5	0.0%
36	-4	-4.3%

(cont.)
nr	structure	Rango dissoc inh	miR-21 FLuc
37	COc1ccc(CNC(=O)COC(=O)c2cc(-c3ccc(Cl)s3)nc3ccccc23)cc1	?	13%
38	CN1CCNC(=O)C1CC(=O)NCCc1ccccc1F (centres undefined)	-3%	1%
39	O=C(NCc1ccc2c(c1)OCO2)c1nnc(Cc2ccc(F)cc2)o1	-5%	-7%
40	CCn1c(-c2ccc(-c3ccccc3)cc2)c[nH]c1=S	-2%	1%
41	CC(C)N(C(=O)c1ccc(-c2ccccc2F)cc1)C(C)C	-5%	6%
42	COC(=O)Cc1c(C)nc2nc[nH]n2c1=O	7%	1%
43	NS(=O)(=O)c1ccc(-c2ccc(C=C3C(=O)c4ccccc4C3=O)o2)cc1	-8%	-1%
44	COc1ccc(NC(=O)CC2C(=O)N(C)C(=S)N2Cc2ccc3c(c2)OCO3)cc1 (centres undefined)	2%	6%
45	O=C(COC(=O)c1ccc(Br)cc1)Nc1cccnc1Cl	-6%	.
46	Cc1cc(NC(=O)Nc2cccs2)no1	12%	-17%
47	CCOC(=O)/C(C#N)=C\c1ccc(OCC(=O)Nc2ccc(C)cc2C)c(OC)c1	-3%	-5%
48	O=C1C(=O)N(c2nccs2)C(c2ccccc2F)/C1=C(\O)c1ccc2c(c1)OCCO2 (centres undefined)	?	19%

nr	GLA inh pH 4.5	Rango-impB inh
37	-10	?
38	2	1.0%
39	-9	1.9%
40	1	-3.7%
41	-12	-0.5%
42	3	2.3%
43	.	-1.8%
44	-1	0.6%
45	.	-3.3%
46	0	?
47	8	0.1%
48	.	?

(list continues)
nr	structure	Rango dissoc inh	miR-21 FLuc
49	Cn1cc(-c2nnnn2-c2ccc(Cl)cc2)c(C(F)(F)F)n1	-7%	3%
50	CCN(CC)CCCNc1nc(-n2nc(C)cc2C)nc2sc3c(c12)CC(C)(C)OC3	-16%	-21%
51	COc1cccc(OC)c1C(=O)O/N=C(\N)c1ccncc1	-2%	4%
52	C=CCn1c(=NC(=O)c2cc(Cl)sc2Cl)sc2cc(S(N)(=O)=O)ccc21	19%	-3%
53	COc1cc(OC)cc(C(=O)N[C@H](C(=O)Nc2c(C)n(C)n(-c3ccccc3)c2=O)C(C)C)c1	1%	.
54	CCOc1ccc(C(=O)OCc2nnc(-c3cccs3)o2)cc1OC	10%	-6%
55	CCN(CC)S(=O)(=O)c1ccc(N2CCOCC2)c(NC(=O)CN2C(=O)NC(C)(c3ccccc3)C2=O)c1 (centres undefined)	-21%	.
56	O=C(NC1CCN(S(=O)(=O)c2ccc(Cl)c(F)c2)CC1)c1cccnc1	3%	-3%
57	NC(=O)C1CCN(C(=O)c2ccc3nc(N4CCCCC4)sc3c2)CC1	-5%	-54%
58	COc1cc(/C=C/C(=O)Nc2cc(S(=O)(=O)N3CCOCC3)ccc2N2CCCC2)cc(OC)c1OC	-12%	6%
59	O=C(COC(=O)/C=C/c1cccc([N+](=O)[O-])c1)Nc1ccc(Cl)cn1	-4%	.
60	Cc1cccc(-c2nc3c(c(=O)c4ccccc4n3C)c(=O)n2-c2ccccc2)c1	-12%	0%

nr	GLA inh pH 4.5	Rango-impB inh
49	2	-5.3%
50	2	2.9%
51	-4	1.6%
52	0	-1.8%
53	.	?
54	6	1.2%
55	.	-0.7%
56	.	-1.8%
57	-7	0.8%
58	3	-0.1%
59	.	-2.4%
60	5	0.8%

Reprinted at random: 6 entries already listed, in no set order.
nr	structure	Rango dissoc inh	miR-21 FLuc
56	O=C(NC1CCN(S(=O)(=O)c2ccc(Cl)c(F)c2)CC1)c1cccnc1	3%	-3%
42	COC(=O)Cc1c(C)nc2nc[nH]n2c1=O	7%	1%
25	CCn1c(SCC(=O)N2CCCc3ccccc32)nnc1-c1c[nH]c2ccccc12	2%	4%
8	O=C(Nc1ccncc1)c1cccc(S(=O)(=O)N2CCN(c3ccc(F)cc3)CC2)c1	2%	.
49	Cn1cc(-c2nnnn2-c2ccc(Cl)cc2)c(C(F)(F)F)n1	-7%	3%
46	Cc1cc(NC(=O)Nc2cccs2)no1	12%	-17%

nr	GLA inh pH 4.5	Rango-impB inh
56	.	-1.8%
42	3	2.3%
25	0	-0.9%
8	.	2.6%
49	2	-5.3%
46	0	?

(more compounds)
nr	structure	Rango dissoc inh	miR-21 FLuc
61	COc1ccc(C(=O)CSc2nnc(-c3cccnc3)n2Cc2ccco2)cc1	-12%	-10%
62	Cc1cccc(N2C(=O)CSC23CCCCC3)c1	-2%	-1%
63	Cc1ccc(S(=O)(=O)N2CCOC2CNC(=O)C(=O)NCC(C)C)cc1 (centres undefined)	3%	3%
64	CCOC(=O)c1ncn2c1[C@@H]1CCNC1C(=O)c1cc(OC)ccc1-2 (some centres undefined)	-8%	.
65	CSc1ccccc1OCc1cc(C(=O)NCc2cnc(C)cn2)no1	-11%	-5%
66	COc1ccc(OC)c(NC(=O)C(CC(=O)O)Cc2ccc(Cl)cc2)c1 (centres undefined)	7%	-1%
67	CCOC(=O)c1nc(NCc2ccccc2C)c2ccccc2n1	8%	0%
68	COC(=O)c1c(C)[nH]c(C(=O)NCc2ccco2)c1C	-16%	-13%
69	O=C(CN1C(=O)NC(Cc2c[nH]c3ccccc23)C1=O)NCC(F)(F)F (centres undefined)	-13%	0%
70	COc1ccc(CC(=O)OC(C)C(=O)NCc2ccc3c(c2)OCO3)cc1OC (centres undefined)	-3%	.
71	Cc1cccnc1NC(=O)c1cc2ccccc2oc1=O	-7%	-58%
72	COc1ccc(NC(=O)COC(=O)CCC2CCCCC2)cc1	-12%	.
73	O=C(C1=C[C@@H](C2CC2)C[C@@H](OCc2ccc(CO)cc2)O1)N1CCOCC1	17%	4%

nr	GLA inh pH 4.5	Rango-impB inh
61	-7	-2.6%
62	-6	-3.6%
63	.	-0.9%
64	.	-1.3%
65	.	0.5%
66	3	-0.5%
67	6	-0.1%
68	-5	-3.5%
69	.	3.1%
70	.	-0.7%
71	2	-0.3%
72	.	5.0%
73	4	-1.2%

A second format for 2 compounds above:
| item | smiles | Rango dissoc inh | miR-21 FLuc | GLA inh pH 4.5 | Rango-impB inh |
| --- | --- | --- | --- | --- | --- |
| 42 | COC(=O)Cc1c(C)nc2nc[nH]n2c1=O | 7% | 1% | 3 | 2.3% |
| 53 | COc1cc(OC)cc(C(=O)N[C@H](C(=O)Nc2c(C)n(C)n(-c3ccccc3)c2=O)C(C)C)c1 | 1% | . | . | ? |
